Screening results from PubChem BioAssay.
Vaccinia mCherry: qHTS for Stage-Specific Inhibitors of Vaccinia Orthopoxvirus: mCherry Reporter Primary qHTS | Vaccinia virus mCherry reporter infection, fluorescence; about a quarter of the inactives have no number | hit rate 0.63% among 310,000 | Potency, µM (titrated, usually from 36.5 µM), inactives show at the top dose activity change, negative = inhibition, most hits filed as inhibitors | AID 720579, 2013; active = well fitted inhibition curve with a large enough effect; inconclusive = small, poorly fitted or top-dose-only effect; inactive = no such curve, though single readings can be large or run the other way; tested in A549 cells; note: nearly all actives have a fitted effect of over 35% in size; inactives centre near -10
VACV Venus inh: qHTS for Stage-Specific Inhibitors of Vaccinia Orthopoxvirus: Venus Reporter Primary qHTS | Potency, µM (series often up to 36.5 µM), for the others: at the top dose activity change, negative = inhibition, actives largely listed as inhibitors | Vaccinia virus Venus reporter expression, fluorescence | hit rate 0.46% among 330,000; active means well fitted inhibition curve with a large enough effect; inconclusive means small, poorly fitted or top-dose-only effect; inactive means no such curve, though single readings can be large or run the other way; tested in A549 cells; note: nearly all actives have a fitted effect of over 30% in size; inactives centre near -10
* = called active by the depositor; i = inactive; ? = inconclusive; . = not tested or not shown; & = joins results of further samples; [ ] = another dose, or the depositor's remark. % is set by controls: 0 for no effect and ±100 for the full control effect; potency is the fitted concentration of half-maximal effect.

Sequence of screens: Vaccinia mCherry, VACV Venus inh
> COc1cc(C(=S)N2CCOCC2)cc(OC)c1OC(=O)c1ccccc1[N+](=O)[O-]
→ i, -24.0%
> CCOC(=O)c1cnn(-c2ccc(Cl)cc2)c1C1CCN(C(=O)OC(C)(C)C)CC1
→ ?, -29.1%
> O=C(N/N=C1\C2CN3CCN(C2)CC1(c1ccccc1)C3)c1ccc(F)cc1
→ -5.5%, -13.9%
> CCOc1ccc(S(=O)(=O)N2CCCCC2)cc1NC(=O)c1ccccc1
→ i, -6.0%
> Cc1ccccc1C(=O)NCC(=O)OC(C)C(=O)NCc1ccco1 (configuration not stated)
→ i, -19.6%
> COc1ccc(CN(CC2CCC(C(=O)O)CC2)C(=S)Nc2cc(C)cc(C)c2)cc1 (configuration not stated)
→ -17.9%, -5.4%
> CCOC(=O)C1CCN(C(=O)c2ccc(OCC(=O)Nc3cccc(C(F)(F)F)c3)c(OC)c2)CC1
→ -21.0%, -4.7%
> Clc1ccc(CNc2nc3ccccc3c3nc(-c4cccnc4)nn23)cc1
→ -9.8%, -0.7%
> Cc1cc(C(=O)NCCc2ccc(Cl)cc2)c2c(C)nn(-c3ccccc3)c2n1
→ -6.3%, 7.0%
> CCOc1cc(C2Sc3ccccc3NC3=C2C(=O)c2ccccc23)ccc1O (configuration not stated)
→ -22.3%, -16.3%
> O=C(C1=C[C@@H](c2coc3ccccc3c2=O)C[C@@H](OCc2ccc(CO)cc2)O1)N1CCN(Cc2ccccc2)CC1
→ -12.4%, -26.0%
> CCC(=O)N/N=C/c1ccc(OS(=O)(=O)c2ccccc2)cc1
→ -16.8%, -2.5%
> COc1ccc(/C=N/Nc2nc(N3CCCCC3)nc(N3CCCCC3)n2)cc1[N+](=O)[O-]
→ ?, ?
> O=C(NCCCN1CCCC1)Nc1ccc(F)cc1
→ -9.8%, -8.6%
> Cc1ccc2c(Cl)cc(Cl)c(OCC(=O)O)c2n1
→ i, 1.4%
> CN(C)S(=O)(=O)c1cccc(NC(=O)COC(=O)c2ccc3c(c2)OCO3)c1
→ -13.2%, -11.9%
> CCOC(=O)C1CCN(C(=O)CC2C(=O)N(Cc3ccccc3)C(C)c3nc4ccccc4n32)CC1 (configuration not stated)
→ i, -5.6%
> Oc1ccc(-c2nc(-c3ccc(F)cc3)c(-c3ccncc3)[nH]2)cc1
→ -6.4%, -12.1%
> O=C(NCc1ccco1)C(c1ccc(F)cc1)N(CC1CCCO1)C(=O)Cn1nnc2ccccc21 (configuration not stated)
→ ., -10.8%
> CCCN(CCC)C(=O)c1c[nH]c2ccc(S(=O)(=O)Nc3cc(C)cc(C)c3)cc2c1=O
→ 1.3%, -4.5%
> CCSC1=C(C#N)C(c2ccc3c(c2)OCO3)C2=C(CCCC2=O)N1 (configuration not stated)
→ ., -23.0%
> Cc1n[nH]c(=O)c2c(NC(=O)CSc3ccccc3Cl)oc(C)c12
→ -21.2%, -9.0%
> COCCNc1nnc(SCC(=O)NNC(=O)c2ccc([N+](=O)[O-])cc2)s1
→ i, -1.7%
> O=C(/C=C/c1ccc2c(c1)OCO2)NCCS(=O)(=O)N1CCN(c2ccccc2)CC1
→ -3.0%, -21.4%
> O=C(CN1CC(c2ccccc2)CC1=O)OCc1ccccc1F (configuration not stated)
→ i, -10.8%
> O=C1C2C3C=CC(C4CC34)C2C(=O)N1/N=C/c1ccc(-c2ccc(F)cc2[N+](=O)[O-])o1 (configuration not stated)
→ ?, ?
> Cc1ccc2nc(-c3ccncc3)cc(C(=O)Nc3ccc(OC(F)F)cc3)c2c1
→ -20.6%, ?
> COCCCNC(=O)CSc1nc2c(sc3ccccc32)c(=O)n1CCCC(=O)NCC1CCCO1 (configuration not stated)
→ i, -23.3%
> C=CCOC(=O)C1=C(C)NC(C)=C(C(=O)OCC=C)C1c1cccs1
→ ?, -28.6%
> Cc1cccc(-c2ncc(S(=O)(=O)C(C)(C)C)c(N)n2)c1
→ -10.0%, -8.1%
> COC(=O)C1=C(c2ccc(C(C)=O)cc2)C[C@@H]2CC[C@H]1N2C
→ i, -13.5%
> CCCOc1ccc(CNC(=O)C2CCN(c3nc4ccccc4nc3C(F)(F)F)CC2)cc1
→ -12.3%, -18.5%
> CCOC(=O)/C(=N/Nc1ccc(Cl)cc1)S(=O)(=O)c1ccccc1
→ -5.4%, -24.8%
> Cc1ccc(NC(=O)CSc2nc3ccc(Nc4nc(N5CCOCC5)nc(N5CCOCC5)n4)cc3s2)cc1
→ -10.4%, 0.2%
> O=C(NC1CCCCCCC1)C1c2ccccc2C(=O)N1Cc1cccs1 (configuration not stated)
→ -22.4%, -14.9%
> O=C(Cc1ccccc1)Nc1ccccc1Oc1ccccc1
→ -1.7%, -15.4%
> CCOC(=O)c1sc(NC(=O)CSc2n[nH]c(C)n2)nc1C
→ -21.2%, -11.1%
> COc1ccc(NS(=O)(=O)c2ccc3c(c2)C(C(C)C)C(=O)N3)cc1 (configuration not stated)
→ -6.2%, -13.6%
> CCCCCCCN(C(=O)CCl)c1cccc(C)c1
→ -18.2%, -9.7%
> O=C(/C=C/c1ccccc1)c1c(O)n(CCc2ccccc2)c(=O)[nH]c1=O
→ -3.3%, -3.2%
> Cc1cccc(C(C)C)c1NC(=O)COC(=O)CN1C(=O)C2CC=CCC2C1=O (configuration not stated)
→ i, -8.2%
> CC1CC1C(=O)OCC(=O)NNC(=O)COc1ccc(Br)cc1 (configuration not stated)
→ -11.8%, -5.4%
> CCC1(C)Cc2c(sc3nc4n(c(=O)c23)CCS4)CO1 (configuration not stated)
→ ., ?
> CCOc1ccc(C(=O)N2CCN(c3ccccn3)CC2)cc1
→ i, -11.1%
> Cc1cc(C)c2c(=O)n(CC(=O)N3CCC(N4CCCCC4)CC3)sc2n1
→ -11.7%, 8.6%
> CCOc1ccc(C(C)NC(=O)Cc2ccccc2)cc1OCC (configuration not stated)
→ -14.4%, -8.2%
> Cc1cc(C)c(S(=O)(=O)N2CCCCC2CCNC(=O)C(=O)NCc2ccco2)c(C)c1 (configuration not stated)
→ ?, ?
> Cc1ccc(C2(CCNS(=O)(=O)c3ccc(C)cc3)CCOC(C(C)C)C2)cc1 (configuration not stated)
→ -6.0%, -22.0%
> CC1(C)OC(=O)C2=C(C[C@@H](C3CCCC3)O[C@@H]2c2ccc(Cl)cc2)O1
→ -12.0%, 0.3%
> Cc1c(Cl)cccc1NC(=O)C(C)n1nnc2sc3c(c2c1=O)CCCC3 (configuration not stated)
→ -14.6%, -1.5%
> CCc1nc2ccc(C(=O)Nc3cccc(NS(C)(=O)=O)c3)cn2c1N(C)C(=O)Cc1ccccc1
→ i, -18.9%
> COc1ccc(-n2cc(CNCCc3cnc[nH]3)c(-c3cccc(F)c3)n2)cc1
→ ?, -27.3%
> Cc1nnc(SCc2nc3ccccc3nc2C)s1
→ -13.2%, -8.6%
> CC(C)C1S/C(=N/N=C/c2cccs2)NC1=O (configuration not stated)
→ i, -6.5%
> Cc1cc(=O)n2[nH]c(C(=O)O)nc2n1
→ ., -3.8%
> COc1ccc(C(C)(O)c2nc(-c3ccncc3)cs2)cc1 (configuration not stated)
→ -17.4%, -22.5%
> CCCCN(C)CCNC(=O)c1cc2c(-c3ccccc3F)nn(C)c2s1
→ -16.1%, -15.5%
> O=C(CSc1ncnc2nc[nH]c12)Nc1ccccc1C(F)(F)F
→ -19.2%, -19.4%
> O=S(=O)(Nc1nc2ccccc2nc1NCC1CCCO1)c1ccccc1 (configuration not stated)
→ 2.7%, -3.4%
> O=C1C(=O)c2ccccc2C(O)=C1C1CCC(c2ccc(Cl)cc2)CC1 (configuration not stated)
→ i, -15.8%&-10.8%

Reprinted at random: 2 compounds from above, in no set order.
Sequence of screens: Vaccinia mCherry, VACV Venus inh
> CC(C)C1S/C(=N/N=C/c2cccs2)NC1=O (configuration not stated)
→ i, -6.5%
> COc1ccc(NS(=O)(=O)c2ccc3c(c2)C(C(C)C)C(=O)N3)cc1 (configuration not stated)
→ -6.2%, -13.6%

(next part)
Sequence of screens: Vaccinia mCherry, VACV Venus inh
> Fc1ccc(-c2csc3ncnc(N4CCc5ccccc5C4)c23)cc1
→ -2.8%, 1.6%
> O=C1CCc2cc(S(=O)(=O)Nc3ccccc3F)cc3c2N1CCC3
→ ?, -18.2%
> COc1cccc2sc3cc(NCc4ccc5c(c4)OCO5)ccc3c(=O)c12
→ i, -28.1%
> Cc1c(C)c2ccc(OCC(=O)NC3CCN(Cc4ccccc4)CC3)cc2oc1=O
→ -12.5%, -14.4%
> O=C(CNC(=O)C(c1ccccc1)c1ccccc1)N/N=C/c1cccnc1
→ i, 2.2%
> Cc1cccc(/C=N/n2c(-c3cc(-c4ccccc4)n[nH]3)n[nH]c2=S)c1
→ -16.7%, 5.4%
> CC1CN(c2ccc(S(=O)(=O)N3CCCC3)cn2)CC(C)O1 (configuration not stated)
→ i, -11.0%
> Cc1ccc(CNCc2cc3c(C(C)(C)C)nn(-c4ccccc4)c3[nH]c2=O)cc1
→ -11.4%, -20.5%
> COCCNC(=O)COc1cccc(Oc2ccccc2)c1
→ -4.3%, -0.6%
> CCN1C(=O)c2ccc(C(=O)Nc3ccc(O)cc3C)cc2C1=O
→ -0.8%, -15.9%
> Cc1cccc(C(=O)NNC(=O)c2ccc(S(=O)(=O)N3CCOCC3)cc2)c1
→ -7.1%, -23.3%
> O=C(Nc1ccc(Br)cc1)C1CCCN1S(=O)(=O)c1ccc(F)cc1 (configuration not stated)
→ -16.7%, -16.9%
> CC(Sc1ccc(Cl)cc1)C(=O)NCc1ccc2c(c1)OCO2 (configuration not stated)
→ ., -14.0%
> CC/C=C(\NC(C)=O)c1ccccc1
→ i, -4.2%
> CSc1nc2ccc3nc(NC(=O)c4ccccc4)sc3c2s1
→ -12.2%, -11.3%
> CCOc1ccc2[nH]c(=O)c(CN(CCO)C(=O)c3ccccc3F)cc2c1
→ -10.4%, 1.3%
> Cc1ccc(C)c(N2CCN(S(=O)(=O)c3ccc4c(c3)CC(C)N4C(=O)C3CC3)CC2)c1 (configuration not stated)
→ -13.7%, -3.2%
> O=c1[nH]c(O)c(C=Nc2ccccc2Oc2ccccc2)c(=O)[nH]1
→ -5.1%, 0.5%
> Cc1cccc(C(=O)Nc2ccc(C(=O)/C=C/c3ccncc3)cc2)c1
→ i, -18.2%
> CCCC(O)c1nc2ccccc2n1Cc1ccccc1OC (configuration not stated)
→ i, -15.7%
> Cc1ccccc1CNC(=O)c1cc2cccc3c2n1CC(C)S3 (configuration not stated)
→ i, -14.5%
> CNC(=O)NC(=O)CSc1nc2cc(C(=O)OC)ccc2c(=O)n1-c1ccccc1
→ -15.4%, -6.0%
> C[n+]1ccc(-c2cc[n+](C)cc2)cc1
→ i, -6.2%
> CCc1nc2ccc(C(=O)NCc3ccc(OC)cc3)cn2c1N(CC)Cc1cccc(Br)c1
→ i, -29.5%
> Cc1cc([N+](=O)[O-])ccc1NC(=O)C1CCCO1 (configuration not stated)
→ -10.1%, -5.1%
> Cc1cc(CNC(=O)C(C)n2nc(C)c([N+](=O)[O-])c2C)c2ccccc2n1 (configuration not stated)
→ 6.4%, -7.0%
> Cc1cc(C)nc(Nc2n[nH]c(COc3cccc4ccccc34)n2)n1
→ -19.1%, -2.7%
> O=C1CC(c2ccc3c(c2)OCCO3)Oc2ccccc21 (configuration not stated)
→ i[7.34 µM], -2.4%[7.34 µM]
> CN(C)c1ccc(C=O)cc1Cl
→ -8.6%, -8.8%
> O=C(Nc1ccccc1)O[C@@H]1C[C@H]2CCCC(=O)N3CC[C@@H](C1)[C@@H]23
→ -9.7%, -7.9%&-17.4%
> C/C(=N\NC(=O)c1ccccc1O)c1ccc(NC(=O)Cc2ccccc2)cc1
→ i, -13.9%
> Cc1ccc(Cn2c(=O)n(CC3CCC(C(=O)N4CCC(C)CC4)CC3)c(=O)c3sccc32)cc1 (configuration not stated)
→ -17.6%, -24.6%
> CCCCC1Cc2[nH]c(=S)[nH]c(=O)c2C(C(C)C)O1 (configuration not stated)
→ -6.9%, -7.0%
> CC(C)NC(=O)COc1coc(CN2CCN(c3ccccc3F)CC2)cc1=O
→ i, -16.9%
> Clc1ccc(OCCN2CCOCC2)cc1Cl
→ -16.1%, -14.4%
> Cc1ccc(NC(=O)c2ccc(Cl)cc2Cl)c(C(=O)c2ccccc2)c1
→ i, -9.3%
> CCC(C)(C)n1nnnc1CN(Cc1cc2cc(OC)ccc2[nH]c1=O)C1CCCC1
→ -10.2%, -18.6%
> Cc1ccccc1CNC(=O)C(C)Sc1ccccc1 (configuration not stated)
→ -3.1%, -9.2%
> Cc1sc2nc(SCC(=O)Nc3ccc(S(N)(=O)=O)cc3)[nH]c(=O)c2c1C
→ -1.7%, -5.3%
> O=C(NCCc1ccccc1)C1CCC(CNS(=O)(=O)c2ccc(F)cc2)CC1 (configuration not stated)
→ -16.1%[7.34 µM], -3.7%[7.34 µM]
> O=C(O)CCC(=O)Nc1ccc(S(=O)(=O)N2CCCC2)cc1
→ ., -20.5%
> CCOc1ccc(CNCc2ccc(C(=O)O)cc2)cc1OC
→ 6.7%, 4.3%
> CN(C(=O)COC(=O)c1ccccc1NC(=O)c1ccco1)C1CCS(=O)(=O)C1 (configuration not stated)
→ -1.8%, 4.4%
> CC1(C)CC(=O)C(C=NCCC2=CCCCC2)=C(O)C1
→ i, -22.2%
> Cc1ccc(NC(=O)NCCOCCn2c(=O)oc3ccccc32)c(C)c1
→ 12.0%, 16.7%
> O=C(NCC(c1ccco1)N1CCCCC1)c1ccc(S(=O)(=O)Nc2ccccc2)cc1 (configuration not stated)
→ ?, -3.8%
> O=C(CSCc1ccc(Cl)cc1)NN=C1CCCC1
→ i, -1.3%
